# RE007 growth inh = less growth of the S. pombe RE007 Vpr strain | Potency, µM (doses to about 92.2 µM), for inactives: at the highest dose activity change, negative = less growth | hit rate 0.21% among 360,000 | S. pombe RE007 Vpr strain, BacTiter-Glo ATP luminescence, 24 h; control for the full effect not named in the record; active = well fitted falling curve with a large enough effect; inconclusive = small, poorly fitted or top-dose-only effect; inactive = no such curve, though single readings can be large or run the other way;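 further: on the % scale 0 is the no-effect control and ±100 the full control effect; nearly all actives have a fitted effect of over 50% in size; the assay follows cell death caused by Vpr and the record does not say whether a fall means rescue or toxicity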
#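 Fission yeast RE007 carrying one integrated HIV-1 vpr copy, seeded at OD 0.01 in PMG+AL medium with 23 nL pinned compound. Grown 24 h at 30 degrees; viability read by BacTiter-Glo luminescence after 5 min.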
# 2A StopGo = FMDV 2A StopGo reporter, luciferase signal; human cells with a luciferase reporter of 2A StopGo recoding; control for the full effect not named in the record; Potency, µM (highest dose often 57.9 µM), for inactives: top-dose signal change, negative = less light; hit rate 1.2% among 410,000; AID 1159524; active = well fitted falling curve with a large enough effect; inconclusive = small, poorly fitted or top-dose-only effect; inactive = no such curve, though single readings can be large or run the other way; tested in HEK293T cells; further: on the % scale 0 is the no-effect control and ±100 the full control effect; nearly all actives have a fitted effect of over 45% in size; luciferase light after 4 h
# Marburg entry inh = inhibitors of Marburg virus binding or cell entry; Marburg virus pseudotyped entry inhibition, cell reporter; control for the full effect not named in the record; about a third of the inactives were read at about 46 µM; Potency, µM (doses to about 37.8 µM), inactives show at the top dose activity change, negative = inhibition, actives largely listed as inhibitors; hit rate 1.8% among 300,000; active = well fitted inhibition curve with a large enough effect; inconclusive = small, poorly fitted or top-dose-only effect, or effect the other way; inactive = flat fitted curve, though single readings scatter; tested in HEK293 cells; about a fifth of its hits are not listed in these tables; further: on the % scale 0 is the no-effect control and ±100 the full control effect; luciferase read-out
# Cruzain noTriton = cruzain (T. cruzi) inhibition without detergent | purified cruzain, Z-FR-AMC fluorescence, no detergent | Potency, µM, without a hit: max response, negative = inhibition, actives largely listed as inhibitors | hit rate 2.3% among 200,000; active means well fitted curve in the direction sought with a large enough effect; inconclusive means small, poorly fitted or top-dose-only effect, or another doubt; inactive means no such curve, though single readings can be large; an effect the other way counts as inactive or inconclusive;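 further: plate controls were enzyme without inhibitor for no effect and buffer without enzyme for full effect; nearly all actives have a fitted effect of over 40% in size; top concentration of the series not given in the record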
# Target sequence (P25779 123-467 limits assumed): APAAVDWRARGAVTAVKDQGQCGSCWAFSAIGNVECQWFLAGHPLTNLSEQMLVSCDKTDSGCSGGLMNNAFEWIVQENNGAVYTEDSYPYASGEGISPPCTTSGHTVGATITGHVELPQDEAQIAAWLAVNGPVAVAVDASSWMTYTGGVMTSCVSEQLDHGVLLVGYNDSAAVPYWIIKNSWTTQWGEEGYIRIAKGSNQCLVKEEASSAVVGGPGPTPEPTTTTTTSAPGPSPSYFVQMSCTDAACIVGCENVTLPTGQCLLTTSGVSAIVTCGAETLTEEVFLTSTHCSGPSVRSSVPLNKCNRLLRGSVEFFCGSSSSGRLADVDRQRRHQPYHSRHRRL
#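 Purified cruzain at 1.5 nM, pre-incubated 15 min with compound at room temperature in 100 mM sodium acetate pH 5.5, 5 mM DTT, 0.00005% Triton X-100. Reaction started with 2 uM Z-FR-AMC; AMC fluorescence increase over 60 s gives rate.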
# SARS PLP yeast = SARS-CoV PLP inhibition in yeast. AID 485353. Potency, µM (series often up to 32.9 µM), for inactives: at the highest dose activity, positive = growth rescue. S. cerevisiae expressing SARS-CoV PLpro, growth rescue; control for the full effect not named in the record. hit rate 0.19% among 330,000; further: 0% is about no effect; nearly all actives have a fitted effect of over 55% in size; growth read by luminescence after 48 h
# Cruzain Triton = blocks cruzain activity in presence of Triton detergent; purified cruzain, Z-FR-AMC fluorescence, 0.01% Triton; Potency, µM, for the others: max response, negative = inhibition, actives largely listed as inhibitors; hit rate 0.43% among 200,000; AID 1478; active means well fitted curve in the direction sought with a large enough effect; inconclusive means small, poorly fitted or top-dose-only effect, or another doubt; inactive means no such curve, though single readings can be large; an effect the other way counts as inactive or inconclusive;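 further: plate controls were neutral wells for no effect and buffer without enzyme for full effect; nearly all actives have a fitted effect of over 40% in size; top concentration of the series not given in the record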
#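 Enzyme 1.5 nM, Z-FR-AMC 2 uM, NaOAc 100 mM pH 5.5, DTT 5 mM, Triton X-100 0.01%; 15 min RT compound preincubation; kinetic ex360/em450, 60 s delta.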
# LASV entry inh = Lassa virus entry inhibition. Lassa virus pseudotype entry inhibition, cell reporter; control for the full effect not named in the record. Potency, µM (series often up to 37.9 µM), for the others: top-dose activity change, negative = inhibition, most hits filed as inhibitors. hit rate 1.2% among 300,000; active means well fitted inhibition curve with a large enough effect; inconclusive means small, poorly fitted or top-dose-only effect, or effect the other way; inactive means flat fitted curve, though single readings scatter; tested in HEK293 cells; further: on the % scale 0 is the no-effect control and ±100 the full control effect; nearly all actives have a fitted effect of over 50% in size; luciferase read-out
# NS1 function inh = blocks influenza NS1 protein function; S. cerevisiae slowed by influenza A NS1, growth recovery by OD600; Potency, µM (top dose mostly 46.1 µM), without a hit: at the top dose activity, positive = more growth; hit rate 0.4% among 270,000; AID 2326; further: actives are rising curves; nearly all actives have a fitted effect of over 50% in size
#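 OD600 was taken as the measure of yeast growth restored by compound in an NS1-expressing S. cerevisiae strain. Cells had been washed out of glucose medium and diluted 1:100 into galactose -URA medium, pH 6.0.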
# * marks the source's active call; other numbers are inactive results; ? = inconclusive; / = not tested or not shown; & = joins results of further samples; [ ] = another dose, or the depositor's remark. Unless noted, the call rests on the fitted dose curve; in most records, active means well fitted rising curve with a large enough effect; inconclusive means small, poorly fitted or top-dose-only effect; inactive means no such curve, though single readings can be large or run the other way. Potency means the concentration at half of the fitted maximal effect.
SMILES,RE007 growth inh,2A StopGo,Marburg entry inh,Cruzain noTriton,SARS PLP yeast,Cruzain Triton,LASV entry inh,NS1 function inh
Cc1cc(C)c(-c2nc3ccccc3s2)[nH]1,?,60%[activator],?,/,-8%,/,?,-11%
Cc1ccc(Cl)cc1-n1c(SCC(=O)NCCC2=CCCCC2)nc2n[nH]c(C)c2c1=N,0%,-16%,/,/,-3%,/,/,11%
Cn1nnnc1SCC(=O)Nc1ccc(Br)cc1Cl,-22%,9%,6%[46.1 µM],5%,-18%,1.3%,2%,1%
CCCCC(CC)COC(=O)c1ccccc1C(=O)OCC(CC)CCCC (configuration not stated),7%[18.4 µM],-10%,/,-8%,/,0.8%,/,/
COc1cccc(CNC(=O)c2cc(-c3cccc(OC)c3)n[nH]2)c1,/,41%[activator],/,-2%,/,-5.9%,-1%[46.1 µM],/
Cc1cccc(C)c1NC(=O)C1=C(O)c2ccccc2N(C)S1(=O)=O,-13%,-13%,?,-14%,-5%,-4.5%,2%,8%
O=C(CSc1ccc(-c2ccco2)nn1)Nc1ccc(F)cc1F,-2%,-17%,-28%,/,15%,/,?,3%
COc1ccc(CCNC(=O)CSc2ncn[nH]2)cc1,5%,-15%,0%,-3%,-5%,1.5%,-1%,5%
O=C(Nc1ccnn1C1CCN(Cc2ccccc2)CC1)c1ccccc1Cl,20%,-29%,/,/,1%,/,/,8%
CCc1ccc(NC(=O)NCc2cccnc2)cc1,-7%,13%,8%[46.1 µM],/,-3%,/,28%[46.1 µM],3%
COc1cc(C)c(Cl)cc1S(=O)(=O)n1cnc(C)c1,-2%,/,0%,2%,-20%,4.1%,0%,5%
Cc1ccc(NC(=O)CSc2nc(=O)cc(N)n2CCc2ccccc2)cc1,12%,-5%&-15%,?,?,2%,-5.1%,-8%[46.1 µM],/
Cc1cc(NC(=O)CCCn2cnc([N+](=O)[O-])n2)no1,16%,14%,/,/,-1%,/,/,-1%
O=C(O)c1cccc(NC(=O)c2cc3cc(Br)cc(Br)c3oc2=O)c1,/,10%,/,-3%,/,-1.7%,26%[46.1 µM],/
COc1ccc(NC(=O)Nc2ccc(Cc3ccncc3)cc2)c(OC)c1,9%,?,-6%,-4%,-15%,-5.9%,-27%,3%
COc1cc(/C=C(\NC(C)=O)C(=O)N2CCCCC2)ccc1OC(C)=O,-8%,-15%,/,/,5%,/,/,?
Cc1sc(NC(=O)C2=COCCO2)c(C#N)c1C,?,20%,9%[46.1 µM],/,2%,/,11%,/
O=C(OCC(=O)N1N=C(c2ccc(Cl)cc2)CC1c1ccco1)c1cncc(Br)c1 (configuration not stated),-26%,-11%,13%[46.1 µM],/,-2%,/,-5%[46.1 µM],/
CC(NC(=O)COc1ccc(/C=N/NC(=O)C(=O)Nc2ccccc2Br)cc1)c1ccccc1 (configuration not stated),8%,?,-26%,?,-7%,-0.2%,0%,0%
CCOc1ccc(Br)cc1S(=O)(=O)NCCN(C)C,-2%,18%,-17%[46.1 µM],-13%,/,2.6%,13%,8%
COc1ccccc1CN1CCNC(=O)C1CC(=O)NCc1csc(C)n1 (configuration not stated),17%,3%,-2%[46.1 µM],/,-1%,/,-8%,-5%
Cc1ccc(C(=O)NCC(=O)OCCOc2ccccc2Cl)cc1,-9%,27%,18%[46.1 µM],/,0%,/,20%,/
CCOC(=O)CNC(=O)CSc1nnnn1-c1ccc(C)c(C)c1,-3%,0%,11%,0%,4%,4.0%,?,-14%
Oc1ccc(N2CCN(Cc3cc4c(cc3Br)OCCO4)CC2)cc1,-18%,-12%,8%[46.1 µM],/,-1%,/,0%[46.1 µM],15%
CCCCCCN(C(=O)CCl)c1ccccc1,9%,20µM*,/,/,1%,/,/,1%
COc1ccccc1C(=O)Nc1sc(Nc2ccccc2)nc1C(N)=O,/,-7%,/,?,/,-0.9%,?,/
COCc1cc(C)nc(SCC(=O)N2CCC(C)CC2)c1C#N,1%,16%,-8%,-11%,3%,-1.8%,4%,0%
COc1ccccc1NC(=O)CSc1nnc(-c2ccccn2)n1Cc1ccco1,-11%,-3%,-15%,3%,12%,0.4%,3%,-10%
COc1ccc(-c2csc(NC(=O)CS(=O)(=O)c3ccc(F)cc3)n2)cc1OC,14%,?,?,/,3%,/,?,/
O=C(CSc1nnc(-c2cccnc2)o1)Oc1ccccc1,-8%,9%,11%,-1%,-3%,0.5%,?,-87%
O=C(C(=O)N1CCN(c2ccccc2F)CC1)c1cn(CC(=O)N2CCOCC2)c2ccccc12,6%,26%,5%[46.1 µM],/,-6%,/,25%[46.1 µM],-7%
CCCCOc1ccc(-c2nn(-c3ccccc3)cc2C2NC(=O)NC(C)=C2C(=O)OCC)cc1 (configuration not stated),/,-12%,?,-2%,/,-3.0%,?,/
COc1ccc(Cl)cc1NC(=O)C/C(C)=N/NC(=O)CC#N,-29%,-6%,5%[46.1 µM],-5%,-7%,-5.0%,-2%,12%
O=C(NCCS(=O)(=O)N1CCC2(CC1)OCCO2)c1ccccc1,-4%,-1%,?,/,0%,/,13%,/
Cc1ccc(S(=O)(=O)N(CC(=O)N2CCCCC2)c2cccc(C)c2)cc1,24%,10%,6%,12%,-34%,-1.4%,-10%,-10%
O=C(CC1C(=O)N(c2ccccc2)C(=S)N1c1ccccc1)c1ccc(Br)cc1 (configuration not stated),-9%,-12%,?,?,4%,-2.5%,7%,9%
COc1ccc(-c2nc(SCC(=O)NCCc3ccc(OC)c(OC)c3)n[nH]2)cc1,/,-3%,/,4%,/,0.5%,-15%[46.1 µM],/
Cc1ccc2nc(NC(=O)c3cccn(Cc4ccc(Cl)cc4)c3=O)sc2c1,/,1%,/,3%,/,-1.5%,4%[46.1 µM],/
CCC1CCCCN1CCNC(=O)C1CCN(S(=O)(=O)c2cccc3nsnc23)CC1 (configuration not stated),2%,-3%,/,/,22%,/,/,-5%
CCc1nnc(NC(=O)Nc2ccccc2OC)s1,-26%,36%[activator],3%,0%,2%,-2.8%,20%,-19%
Cc1ccc(NC(=O)c2ccc(OC(=S)N3CCOCC3)cc2)cc1,13%,15%,2%,4%,-8%,4.3%,-8%,2%
CCOc1ccc(C(=O)Nc2ccc(S(=O)(=O)NCC3CCCO3)cc2)cc1OCC (configuration not stated),5%,10%,-1%,/,-2%,/,1%,10%
COc1ccc(N2CCN(c3nc4c(C)cccn4c(=O)c3/C=C(\C#N)C(N)=O)CC2)cc1,-6%,-24%,/,/,2%,/,/,1%
Cc1cc(C)cc(C(=O)NCC(=O)OCC(=O)NC2CC2)c1,1%,0%,-2%[46.1 µM],/,-3%,/,11%[46.1 µM],/
c1ccc(-c2csc(Nc3ncccn3)n2)cc1,0%,10%,?,?,-4%,5.1%,-22%,14%
COc1ccc(-c2nnc(SCC(=O)N3CCCC3)o2)cc1,-2%,45%[activator],?,/,-1%,/,0%,6%
COc1cccc(/C=C2\C(=O)C(=O)c3ccccc32)c1,11%,39%[activator],19%,-1%,-3%,3.6%,15%,9%
Cc1nnc(SCc2ccccc2)nc1/C=C/NOCc1ccc(Cl)cc1Cl,-14%,0%,-26%,-29%,-2%,-0.6%,-19%,-4%
N/C(=N\OC(=O)CSc1ccccc1)c1ccncc1,3%,23%,/,/,?,/,/,-18%
COC(=O)CNC(c1ccccc1)c1cc(Cl)ccc1NC(=O)c1cccc(Cl)c1 (configuration not stated),1%,0%,10µM*,-19%,-28%,-6.8%,9%,-2%
CN(C)S(=O)(=O)c1ccc(C(=O)NCCOc2ccc(F)cc2)cc1,30%,30%[activator],0%,2%,4%,8.7%,-12%,-5%
Cc1nnc(NC(=O)CSc2nc(C(C)C)nc3sc(C)c(C)c23)s1,7%,-20%,0%,10%,0%,0.2%,7%,9%
N#Cc1ccc(CSc2nnc3[nH]c(=O)cc(N)n23)cc1,-2%,-5%,-27%[46.1 µM],/,0%,/,13%[46.1 µM],/
Cc1nc(C(=O)NNC(=O)Nc2ccc(Cl)cc2)cs1,-3%,-2%,-5%,/,1%,/,?,?
NC(=O)c1ccc(N2CCN(c3ccccc3O)CC2)c([N+](=O)[O-])c1,-14%,-26%,?,/,-6%,/,-16%,1%
CNC[C@@H](Cc1ccccc1)NC[C@@H](CC1CCCCC1)NCCCc1ccccc1,20%,?,/,/,-4%,/,/,-18%
O=C(NCCN1CCCCC1)c1ccc2c(c1)OCCO2,4%,49%[activator],?,12%,-1%,6.8%,?,2%
COc1ccccc1C(=O)n1nc(-c2cccnc2)nc1NCc1ccccc1,4%,-12%&-9%,-1%&0%[46.1 µM],3%,-1%,-5.5%,-17%,-7%
CC(=O)Nc1ccc(N(C(=O)CNC(=O)c2ccco2)C(C(=O)NCc2ccco2)c2ccccc2)cc1 (configuration not stated),8%,-19%,/,/,3%,/,/,6%
CC(C)NC(=O)c1sc2nc3c(c(-c4cccs4)c2c1N)CN(C)CC3,-7%,?,-1%,-4%,2%,-6.2%,-16%,7%
# (more compounds)
SMILES,RE007 growth inh,2A StopGo,Marburg entry inh,Cruzain noTriton,SARS PLP yeast,Cruzain Triton,LASV entry inh,NS1 function inh
Cc1sc(-c2ccccn2)nc1OC(=O)c1cccc(Cl)c1Cl,?,21%,8%,1%,-16%,-5.9%,-4%,-12%
O=C(NCc1ccco1)c1cc2nc(C3CC3)cc(C(F)(F)F)n2n1,16%,8%,1%[46.1 µM],-4%,4%,2.6%,3.5µM*,-10%
CCOC(=O)c1ccc(NC(=O)CC2C(=O)N(c3ccc(C)cc3)C(=O)N2C2CCCCC2)cc1 (configuration not stated),/,-7%,11%[46.1 µM],-11%,/,-1.2%,-8%[46.1 µM],/
CCCCN(C)CCCNC(=O)C1CCN(S(=O)(=O)CC)CC1,/,-14%,/,-2%,/,0.4%,3%[46.1 µM],/
Cc1ccc(NC(=O)CN2CCN(CCN=CC3=C(O)CC(c4ccc(C)cc4)CC3=O)CC2)cc1 (configuration not stated),-10%,?,?,/,1%,/,?,-4%
CCc1ccc(N2C(=O)CC(c3cc(OC)ccc3OC)C3=C2COC3=O)cc1 (configuration not stated),/,-2%,2%[46.1 µM],-17%,/,-2.3%,-13%[46.1 µM],/

# Screening results as filed in PubChem.
